CtBP-E1A inh: blocks the CtBP interaction with E1A | AlphaScreen GST-E1A/His-CtBP binding, 1536-well; stronger effect = lower value; control for the full effect not named in the record | activity change, % (no concentration beside the values) | 340,000 tested, 0.49% active | AID 651724; in the data active means activity change below about -65%; inconclusive means about -30% to -65%; inactive means above about -30%; further: on the % scale 0 is the no-effect control and ±100 the full control effect; compound concentration not given in the record
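In 5 uL wells, 23 nL compound meets equimolar GST-E1A and His-CtBP (5X stock 125 nM each) for 2 h, 37 °C. Beads (5X, 50 ug/mL) then 1 h, 37 °C, dark.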
Six1-Eya2 blk: inhibitors of human Six1/Eya2 interaction. Q15475+O00167. AlphaScreen GST-Six1/His-Eya2 binding, biochemical; stronger effect = lower value; control for the full effect not named in the record. activity change, % (concentration not given with the values). 360,000 tested, 0.56% active. AID 651725; in the data active = activity change below about -65%; inconclusive = about -30% to -65%; inactive = above about -30%; further: on the % scale 0 is the no-effect control and ±100 the full control effect
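Six1/Eya2 binding was read as AlphaScreen signal after compounds were pinned into GST-Six1 plus His-tagged Eya2 (5X stock 250/500 nM) in pH 8.0 Tris/NaCl/TCEP buffer, beads added, then incubated 1 h, 37 C, dark.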
TRPML1 inh: inhibitors of human TRPML1 channel; Q9GZU1; TRPML1-inducible cells, Ca2+ dye fluorescence, FDSS; stronger effect = lower value; inhibition of EC80 agonist-evoked calcium signal; activity change, negative = inhibition, % (no concentration beside the values); 390,000 tested, 0.02% active; in the data active means activity change below about -50%; inconclusive means about -30% to -50%; inactive means above about -30%;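 further: stimulus is agonist 54-4 at its EC80 concentration; on the % scale 0 is the no-effect control and ±100 the full control effect; compound concentration not given in the record; the text of the record puts the active cut at -80%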
Target sequence (Q9GZU1 whole entry, looked up): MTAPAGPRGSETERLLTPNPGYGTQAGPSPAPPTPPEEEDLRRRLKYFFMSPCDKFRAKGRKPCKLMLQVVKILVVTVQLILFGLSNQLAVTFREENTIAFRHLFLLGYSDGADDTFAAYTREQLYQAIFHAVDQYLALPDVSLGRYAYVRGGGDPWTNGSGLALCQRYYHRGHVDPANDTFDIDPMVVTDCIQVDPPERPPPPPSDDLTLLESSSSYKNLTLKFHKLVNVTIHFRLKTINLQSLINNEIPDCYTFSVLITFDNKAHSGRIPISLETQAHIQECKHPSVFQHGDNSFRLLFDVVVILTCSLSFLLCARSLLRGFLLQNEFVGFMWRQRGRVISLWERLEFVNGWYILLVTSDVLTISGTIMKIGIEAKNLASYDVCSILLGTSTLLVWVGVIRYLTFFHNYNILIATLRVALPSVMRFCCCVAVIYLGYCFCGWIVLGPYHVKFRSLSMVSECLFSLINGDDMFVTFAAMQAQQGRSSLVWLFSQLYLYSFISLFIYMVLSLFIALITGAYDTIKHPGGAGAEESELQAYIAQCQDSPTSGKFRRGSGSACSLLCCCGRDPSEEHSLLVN
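Tet-induced TRPML1-DL cells loaded with Ca8 no-wash calcium dye were read kinetically on FDSS. Compound addition was followed by EC80 agonist 54-4 (4 uM final); inhibition was read over 110 s.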
D2 potentiator: potentiates the human D2 dopamine receptor allosterically; P14416; DiscoveRx D2 beta-arrestin cells, luminescence, 90 min; 100% = 57 uM dopamine signal; potentiation, % (no concentration beside the values); 360,000 tested, 0.23% active; AID 624464; active = potentiation of 50% or more; inconclusive = 30% to 50%; inactive = 30% or less;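 further: compound concentration not given in the record; tested on top of an EC20 dose of dopamine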
Target sequence (P14416 whole entry, looked up): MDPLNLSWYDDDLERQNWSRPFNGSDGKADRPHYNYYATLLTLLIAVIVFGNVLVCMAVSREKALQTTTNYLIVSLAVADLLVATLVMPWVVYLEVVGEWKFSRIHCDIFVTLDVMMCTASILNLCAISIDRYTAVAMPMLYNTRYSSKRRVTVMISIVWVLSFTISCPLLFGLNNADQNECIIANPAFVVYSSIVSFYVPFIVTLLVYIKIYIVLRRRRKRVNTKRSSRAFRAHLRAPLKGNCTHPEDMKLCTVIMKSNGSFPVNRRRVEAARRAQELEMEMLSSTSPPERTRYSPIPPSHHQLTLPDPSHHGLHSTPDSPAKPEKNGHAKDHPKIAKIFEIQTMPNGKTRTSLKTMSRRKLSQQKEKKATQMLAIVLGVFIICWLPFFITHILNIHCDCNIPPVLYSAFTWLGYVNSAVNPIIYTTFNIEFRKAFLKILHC
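PathHunter D2 cells, attached overnight at 37 deg C, received compound in DMSO plus dopamine at EC20 (50 nM final) for 90 min at 37 deg C. Beta-arrestin recruitment was read as luminescence after 1 h with detection reagent at ambient temperature.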
TRPML1 ag: activates the human TRPML1 channel; Q9GZU1; TRPML1-expressing cells, Ca2+ dye fluorescence, FDSS; host cell line not named in the record; reference of the full effect not given here; activation, % (concentration not given with the values); 410,000 tested, 0.12% active; AID 624414; in the data active = activation above about 50%; inconclusive = about 30% to 50%; inactive = below about 30%; further: 0% is about no effect; the text of the record puts the active cut at 80%
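Kinetic FDSS Ca2+ read in Tet-induced TRPML1-DL cells (ABD Ca8 dye plus quencher, 45-90 min RT loading): baseline, then compound, then 110 s agonist window; EC80 agonist 54-4 at 4uM final added afterwards for a 110 s antagonist window.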
TRPV1 PAM: potentiators of human vanilloid receptor 1 (TRPV1). Q8NER1. TRPV1-expressing cells, Fluo-8 calcium influx, capsaicin EC20 potentiation; host cell line not named in the record; control for the full effect not named in the record. potentiation, % at 8.33 µM. 320,000 tested, 0.02% active. AID 540277; active means potentiation above 80%; inconclusive means 30% to 80%; inactive means below 30%; further: 0% is about no effect
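Cells expressing TRPV1 were dye-loaded with Fluo-8 and read kinetically: 10 s baseline, 3 min after compound (agonist portion), then 2 min after EC20 capsaicin (allosteric enhancer portion). Calcium-bound dye fluorescence at 480/520 nm.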
* = called active by the depositor; u = inconclusive; x = no result given; & = joins results of further samples.

Molecule	CtBP-E1A inh	Six1-Eya2 blk	TRPML1 inh	D2 potentiator	TRPML1 ag	TRPV1 PAM
COc1cc(C(=O)Nc2nccs2)c(Br)c(OC)c1OC	1	-1	3	8	-0.6	9
COc1cc2[nH]c(C(=O)N3CCN(C)CC3)cc2c(OC)c1OC	3	3	17	-4	-0.3	-2
CC(C)(CO)CNC(=O)CCc1nnc(-c2ccc(-c3ccccc3)cc2)o1	-7	2	-3	-15	0.4	-13
CCc1ccccc1NC(=O)CN1C(=O)c2ccccc2S1(=O)=O	11	-2	0	-3	-0.3	10
C=CCn1c(SCC(=O)N2CCOCC2)nc(O)c(Cc2ccccc2)c1=O	-2	6	-7	11	-0.3	6
O=C1NCCCC1C(=O)N/N=C/c1ccccc1 (stereo unspecified)	7	0	5	-2	-0.2	-7
CCOC(=O)C1=C(C)NC(=O)NC1c1cccnc1 (stereo unspecified)	-1	3	-4	16	0.2	-2
C1CCc2c(c(N3CCOCC3)nc3sc4c(N5CCOCC5)nnnc4c23)C1	3	7	15	-11	-0.4	x
CCOc1ccc(C(=O)Nc2ccccc2N2CCCC2)cc1	-15	-10	-1	-13	0.7	15
CCOc1cc(C2C3=C(CCCC3=O)OC3=C2C(=O)CCC3)cc([N+](=O)[O-])c1O	-10	-4	-2	-10	-0.1	7
O=C(Cn1cnc2c(oc3ccccc32)c1=O)NCc1ccco1	7	0	19	-11	0.1	6
CCOc1ccc(/C=N/NC(=O)c2nnn(-c3nonc3N)c2CN2CCC(C)CC2)cc1	-4	0	-2	-2	2.9	u
Cc1cccc2c(=O)cc(C)n(CC(N)=O)c12	-1	2	2	-3	2.3	3
CN1C(C(=O)Nc2ccccn2)=C(O)c2ccccc2S1(=O)=O	-14	5	23	-13	0.0	18&5
O=C(O)c1ccc(Cn2cnc3c(=S)nc[nH]c32)cc1	-1	2	10	-12	0.4	x
Cc1nc(SCC(=O)Nc2c(C)nn(C)c2C)c2cnn(-c3ccccc3)c2n1	-1	0	8	4	0.4	5
Cc1ccc(Cl)cc1NC1=NC(=S)N(C(C)C)C12CCCCC2	7	4	-3	16	-0.3	-8
CCCOc1ccc(F)cc1-c1cc(C(=O)NCc2cccc(Cl)c2)[nH]n1	0	-5	x	-8	-0.3	x
C[C@@H](NC(=O)[C@@H]1CCCN1C(=O)[C@@H]1CCCN1C(=O)OC(C)(C)C)c1ccccc1	5	12	x	x	-0.4	x
CC1(C)Oc2nc3ccccc3n2/C1=C\C#N	8	2	8	-8	-0.1	-4
CC(C)C[C@@H]1COc2cc(N(C)CCO)ccc2S(=O)(=O)N1	7	-1	x	x	-0.3	x
O=S(=O)(c1cc(Cl)cc(Cl)c1)N1CCCC1c1nc2ccccc2s1 (stereo unspecified)	9	0	33	-1	1.3	-5
CCCn1c(C)cc(=O)c2cc(NC(=O)c3ccccn3)ccc21	u	u	1	-9	-0.5	-3
CN1CCN(C(=O)c2c(O)c3cccc4c3n(c2=O)CC4)CC1	1	2	-12	-2	0.4	6
O=C(Cn1nc(C(F)(F)F)c2c1CCC2)N1CCN(c2ccccc2)CC1	6	2	-14	-14	-0.1	14
COC(=O)[C@@H]1C[C@@H]2CC[C@@H](O)C[C@@H]2N1Cc1ccc(OC)cc1	5	1	9	-4	0.7	9
CCOC(=O)C1(CCOc2ccccc2)CCN(Cc2nccn2CC)CC1	-1	-4	9	-8	-0.4	-6
CC[C@@H]1CC=C[C@H]2[C@H]1C(=O)N(Cc1ccccc1)[C@H]2c1ccc(OC)c(Cl)c1	0	1	49	-4	2.8	25
Cc1cc(C)cc(NC(=O)Cn2nnc(C(=O)NCCc3ccccc3)c2N)c1	1	2	-10&-6	-10	0.1&-0.7	-4
CCOC(=O)N1CCN(C(=O)CSc2ccc3nnc(CCNC(=O)c4ccccc4)n3n2)CC1	7	9	0	4	-0.3	-7
COc1cc(C(=O)NCc2nnc(SCC(=O)N3CCCCCC3)o2)cc(OC)c1OC	-5	8	-9	-5	-0.2	2
CCOC(=O)c1ccc(Cl)c(S(=O)(=O)N2CCCC2)c1	x	3	-10	-3	0.0	3
Cc1cccc(C(=O)Nc2ccc(N3CCN(C(=O)c4ccco4)CC3)cc2)c1	-6	-1	28	1	1.8	0
O=C(O)c1cccc(N2C(=O)CSC2c2c(F)cccc2Cl)c1 (stereo unspecified)	13	7	39	1	0.2	22
CN(C)Cc1c(O)ccc2cc(-c3nc4ccccc4n3C)c(=O)oc12	6	2	-10	-2	6.7	-8
O=c1oc2cc(O)ccc2s1	0	-2	-3	-9	-0.4	1
CCCCN(C=O)c1c(CC)nc2ccc(C(=O)N3CCN(S(=O)(=O)CC)CC3)cn12	-2	-2	-9	-4	-0.3	x
CCOC(=O)c1c(NC(=O)c2cnn3c2NC(c2cccc(OC)c2)CC3C(F)(F)F)sc2c1CCCC2 (stereo unspecified)	-2	-2	-5	-8	0.3	2
CCOc1cc(NC(=O)Nc2ccc(F)cc2)c(OCC)cc1NC(=O)CC	x	-2	11	1	-1.6	-3
C=CCc1ccccc1OCC(=O)OCCNC(=O)c1cccnc1	4	2	12	-5	-0.6	4
CN(C)/C=C(/C(=O)c1ccc(Cl)c(Cl)c1)c1nnnn1-c1ccccc1	10	0	-4	-6	0.4	-6
CCOc1ncccc1C(=O)NCc1ccccc1F	8	1	35	-6	-0.7	7
COc1ccccc1NC(C)=O	3	-1	-13	-4	-1.2	u
CC(=O)Nc1ccc(C(=O)NC(CC(=O)O)c2ccc(Cl)cc2)cc1 (stereo unspecified)	1	3	4	-12	0.3	-19
CSCSC1=C(C#N)C(c2ccccc2Cl)C(C(C)=O)=C(C)N1 (stereo unspecified)	-6	1	45	-13	2.8	-19
Cc1snc(SCC(=O)c2ccc(F)cc2)c1C#N	x	20	5	-6	-0.1	26
O=C(CNC(=O)C12CC3CC(CC(C3)C1)C2)N1CCN(S(=O)(=O)/C=C/c2ccccc2)CC1	-5	4	-6	-2	3.1	7
O=C(O)/C=C/C(=O)Nc1ccc(F)cc1F	6	6	1	-4	0.2	8
N#C/C(C(=O)NCc1ccco1)=C1/SC(Cc2ccc(F)cc2)C(=O)N1c1ccccc1 (stereo unspecified)	0	-11	8	7	0.9	1
CCC(C)(C(=O)NC1CCCC1)N(C)C(=O)Cc1c[nH]c2ccccc12 (stereo unspecified)	-1	2	7	-1	0.4	u
Cc1ccc(S(=O)(=O)NC(=O)c2ccccc2C)cc1	3	18	28	-5	0.4	10
C=CCNC(=O)N1CCCC(C(=O)c2cccc(Cl)c2)C1 (stereo unspecified)	5	3	34	-3	0.8	0
CCN(Cc1ccccc1)C(=O)c1oc2ccc(S(=O)(=O)N3CCOCC3)cc2c1C	-1	-5	46	15	1.8	-9
COc1ccc(C(=O)Nc2ccccc2C(=O)N/N=C/c2ccccn2)cc1OC	0	0	23	27	0.3	-21
Cc1ccc(C2CC(C(F)(F)F)n3nc(C(=O)NCc4ccco4)cc3N2)cc1 (stereo unspecified)	2	-4	48	-5	0.3	-1
CCc1cc2c(=O)c(Oc3ccccc3)c(C)oc2cc1O	7	0	-4	-1	1.6	6
O=C(O)CCCCCNc1nc2ncn(Cc3ccccc3)c2c(=O)[nH]1	7	5	-8	-5	0.7	-2
CC(=O)c1ccc(N2CCN(C(=O)c3cc4c(-c5ccccc5F)nn(C)c4s3)CC2)cc1	-29	-13	4	-1	0.8	9
Cc1cccc(C(=O)N/C(=C\c2ccc(C)o2)C(=O)O)c1	x	0	-13	-12	-0.4	-4
CC(=O)NC(c1ccc(C(C)C)cc1)c1c(O)ccc2ccccc12 (stereo unspecified)	0	-5	-3	-8	0.3	x

(continued)
Molecule	CtBP-E1A inh	Six1-Eya2 blk	TRPML1 inh	D2 potentiator	TRPML1 ag	TRPV1 PAM
CCN1CCN(C(=O)/C=C/c2ccc(OC)c(OC)c2)CC1	5	0	6	-9	0.4	5
COc1cc(NC(=O)CSc2nc(C)c(C)c(C)n2)c(C)cc1[N+](=O)[O-]	22	16	-3	-15	-0.8	2
COC(=O)c1ccc(C2NC(=O)c3ccccc3O2)cc1 (stereo unspecified)	-2	6	4	-2	0.2	1
Fc1ccc(NC(=S)NC2CCCCC2)c(F)c1F	-1	1	31	-4	-0.1	-15
COCCCn1c(SCC(=O)NC2CCCC2)nnc1-c1ccco1	0	0	14	-10	-0.5	-1
CC(C)(C)NC(=O)NC(=O)COc1ccc(Br)cc1Br	10	10	-17	2	0.2	-3
[O-]C1=N/[N+](=C/c2ccc(Cl)cc2)CC1	-4	-1	13	4	-0.6	u
Cc1nc2cc(N3CCCCC3)c(NC(=O)c3ccncc3)cc2c(=O)n1Cc1ccccc1	2	4	29	-2	-0.5	3
COc1ccc(COC(=O)CCc2cc(OC)c(OC)c(OC)c2)cc1F	-1	-10	16	-8	0.6	x
CSc1ccc(S(=O)(=O)Nc2c(C)cccc2C)cc1	5	3	11	1	1.3	-4
COCCN1C2=C(COC(C)(C)C2)C(=S)NC1c1ccccc1 (stereo unspecified)	-4	-5	8	-2	-0.4	-3
CCN(CC)S(=O)(=O)c1ccc(Cl)c(C(=O)NCc2ccco2)c1	-7	7	6	-8	0.9	7
CCOc1ccc2nc(N3C(=O)/C(=C/c4ccccc4)NC3=S)sc2c1	0	17	-11	-20	0.9	8
O=C(Cn1c(=O)c2c3c(sc2n(Cc2ccccc2)c1=O)CCCC3)NCCO	-6	-2	-6	-6	1.0	12
Cc1ccc(-n2c(N)c(C(=O)NCc3cccnc3)sc2=S)cc1	1	0	-6	1	-0.3	-1
O=C1CSCC(=O)N1Cc1ccc(Cl)cc1Cl	x	12	11	-11	2.3	3
O=C(NC1CCCC1)c1c[nH]c2ccc(F)cc2c1=O	-10	-5	43	u	1.1	-7
Cc1ccc2oc(=O)c3cc(C(=O)N4CCN(C)CC4)sc3c2c1	3	-4	x	-17	x	-7
C/C(Cl)=C\Cn1c(=O)c2c(nc3n2CCS3)n(C)c1=O	-11	-27	1	6	-1.2	-13
CC1(C(=O)NS(=O)(=O)c2ccccc2Cl)CCN1C(=O)Cc1cc(F)ccc1F (stereo unspecified)	3	13	x	-7	-0.7	x
CC(C)C[C@H](NC(=O)OC(C)(C)C)C(=O)N1CCC(C(=O)O)CC1	23	8	1	3	-0.4	-3
O=[N+]([O-])c1ccc(NCCCNS(=O)(=O)c2ccccc2)c(Cl)c1	-13	-14	66	-23	1.1	4
N=c1c2ccccc2nc2n1CCCCCCC2	-8	-3	8	-7	-0.4	x
O=C(Nc1ccc(F)cc1)c1ccc(Cn2cnnn2)cc1	19	2	20	-4	-0.2	-11
CC(=O)Oc1ccc2oc(-c3ccccc3)c(C(N)=O)c2c1	6	1	x	2	x	-14

Source: PubChem BioAssay
